Mtb growth: M. tuberculosis H37Rv growth inhibitors, H37Rv strain (AID 1626); M. tuberculosis H37Rv growth inhibition; higher % means a stronger effect; inhibition, % at 10 µM, or IC50 in µM where a hit was titrated; 220,000 compounds, 0.95% hits;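 active = confirmed in a dose series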;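 note: bacteria incubated seven days before Alamar blue readout; 0% = bacteria only wells and 100% = bacteria with antibiotic wells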
RecA intein inh: Mtb RecA intein splicing inhibition | P9WHJ3 | cell-free RecA intein splicing, fluorescence | inhibition, %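 (about 9 µM by stock and volumes)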 | 290,000 compounds, 0.75% hits; in the data active = inhibition above about 30%;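 note: 0% = vehicle wells and 100% = reference inhibitor control wells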
Target sequence (P9WHJ3 whole entry, looked up): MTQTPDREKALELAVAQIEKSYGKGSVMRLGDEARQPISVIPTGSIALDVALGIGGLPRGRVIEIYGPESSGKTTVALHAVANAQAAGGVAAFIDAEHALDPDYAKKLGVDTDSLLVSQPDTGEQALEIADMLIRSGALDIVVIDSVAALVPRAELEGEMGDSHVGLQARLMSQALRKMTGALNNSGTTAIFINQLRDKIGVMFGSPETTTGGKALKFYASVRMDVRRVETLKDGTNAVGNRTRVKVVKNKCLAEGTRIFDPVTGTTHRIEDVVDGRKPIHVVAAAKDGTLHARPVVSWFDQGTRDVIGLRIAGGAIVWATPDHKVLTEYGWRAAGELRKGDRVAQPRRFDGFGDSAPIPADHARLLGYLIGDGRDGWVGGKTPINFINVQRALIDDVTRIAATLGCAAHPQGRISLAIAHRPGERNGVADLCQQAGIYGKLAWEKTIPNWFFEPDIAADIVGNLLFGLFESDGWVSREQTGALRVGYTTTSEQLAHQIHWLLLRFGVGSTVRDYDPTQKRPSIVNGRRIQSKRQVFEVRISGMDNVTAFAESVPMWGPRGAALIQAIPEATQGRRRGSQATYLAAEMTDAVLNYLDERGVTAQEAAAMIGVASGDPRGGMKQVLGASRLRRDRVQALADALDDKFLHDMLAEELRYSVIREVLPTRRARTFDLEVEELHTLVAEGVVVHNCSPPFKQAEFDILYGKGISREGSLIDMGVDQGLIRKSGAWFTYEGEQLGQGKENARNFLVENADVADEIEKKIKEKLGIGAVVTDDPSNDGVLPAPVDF
Arbovirus anti: blocks arbovirus infection | 200,000 compounds, 0.37% hits | inhibition, % at 10 µM | AID 1251 | arbovirus infection cell-based antiviral screen;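 active = inhibition from about 30%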;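 note: bluetongue infection of BSR cells; cell survival read as ATP light after 72 h; 0% = infected wells without compound and 100% = uninfected wells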
Mtb betalactam: beta-lactam sensitization of Mtb H37Rv | M. tuberculosis H37Rv growth with meropenem, percent inhibition; hits of this screen are not shown here | inhibition, % at 25 µM | 330,000 compounds, 0.27% hits | AID 434955;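 active = about 74% or more and at least 40 points above the plate without the antibiotic, then above 30% in a dose series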;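 note: growth measured after seven days incubation then overnight dye step; 0% = bacteria only wells and 100% = bacteria with antibiotic; twin plates without the antibiotic show which effects depend on it; some results filed as inactive read as strong as hits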
YopH PTP inh: inhibitors of Yersinia enterocolitica YopH tyrosine phosphatase; inhibition, %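 (about 10 µM by stock and volumes)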; AID 898; fluorescence Ex485/Em525; 140,000 compounds, 0.16% hits;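 active = inhibition of 50% or more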;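 note: controls were vehicle for no effect and minimum signal wells for full effect; inactives centre near -20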
Arbovirus anti repeat: recorded beside Arbovirus anti, whose call it bears; inhibition, %; measured here: 10K subset replicate screen; many hits read low in the repeat;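 first of two repeat runs on a subset; 0% = infected and 100% = uninfected wells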
An asterisk follows results filed as active; x = not tested or not shown. A portion of the library; the hit share may differ from the screen's.

SMILES	Mtb growth	RecA intein inh	Arbovirus anti	Mtb betalactam	YopH PTP inh	others
O=C(Nc1cccc(O)c1)c1ccc(Br)c(S(=O)(=O)N2CCCCC2)c1	-2%	-1.1	2	0	-40
COc1ccc(-c2nnc(SCC(=O)Nc3cccnc3Cl)n2C)cc1	x	-0.4	x	-12	x
CC1CN=C(NCCc2ccccc2)S1 (stereo unspecified)	-7%	0.3	-1	7	x
CC(C)Oc1ccc(/C(O)=C2/C(=O)C(=O)N(CCN3CCNCC3)C2c2ccc(C(C)C)cc2)cc1 (stereo unspecified)	x	-1.2	x	-5	x
Cc1c(N=Nc2c(-c3ccc([N+](=O)[O-])cc3)[nH]n(C(N)=S)c2=O)cccc1[N+](=O)[O-]	-2%	x	-7	x	x
Nc1ccccc1Nc1c(F)c(F)nc(F)c1Cl	x	8.1	x	-4	x
O=C(COc1cc2oc(=O)c3c(c2cc1Cl)CCC3)NCC(O)c1ccccc1 (stereo unspecified)	x	0.1	x	3	x
COc1ccc(CCNC(=O)c2nnn(-c3ccccc3OC)c2N)cc1OC	-4%	-2.4	2	-3	-48
Cc1cc(C)c2nc(C(F)(F)F)nc(N3CCN(C(=O)c4ccco4)CC3)c2c1	-6%	9.4	13	-3	-4
CC(=O)c1c(O)cc(C)n(Cc2ccccc2)c1=O	-11%	-1.8	x	-9	9
Cc1ccccc1Cn1cc(NC(=O)c2cc(C3CC3)on2)cn1	13%	2.1	x	-5	x
O=C(NCCc1ccc(Cl)cc1)C1CCN(c2cnccn2)CC1	-5%	7.0	-6	3	-42
Cn1cc(CC(=O)NCc2ccc(F)cc2)c2ccccc21	x	2.0	x	4	x
COc1ccc(CNC(=O)CCCCCNC(=O)N2CCn3c2nc2ccccc23)cc1	x	-0.3	x	3	x
CCN(CC)C(=O)Cn1c(=O)n(CCC(=O)Nc2ccc(F)cc2)c(=O)c2sccc21	x	-1.3	x	1	x
CCCNC(=O)NC(=O)CSc1ccc(C)cc1C	9%	1.1	21	0	x
COCC1CCN(C(=O)CCc2nnc(CCCCc3ccccc3)o2)CC1	6%	0.2	10	-13	x
N#Cc1cc([N+](=O)[O-])ccc1NC(=O)COC(=O)CC1CCCC1	-1%	26	x	-6	x
CC(=O)c1sc(NC(C)c2ccccc2)nc1C (stereo unspecified)	x	-0.7	x	-1	x
CC(C)c1ccc(/C=C2\SC(=O)N(CC(=O)NC3CCS(=O)(=O)C3)C2=O)cc1 (stereo unspecified)	x	1.7	x	2	x
CN(C)C(=O)c1cccn(Cc2ccc(C(F)(F)F)cc2)c1=O	2%	2.7	6	-2	x
Cc1nc2c(-c3ccc(F)cc3)c(C)nn2c(C)c1CCC(=O)N1CCN(c2ccccc2)CC1	4%	1.6	-14	-15	-12
C/C=N/NC(=O)CCCC(=O)N/N=C/C	-17%	x	-5	5	x
O=C(NCc1cccnc1)/C(=C/c1ccc(-c2cccc(Cl)c2)o1)S(=O)(=O)c1ccccc1	57%	26	-46	70	-16
CC1CCN(c2ccc(S(=O)(=O)NC3=NCCCCC3)cc2[N+](=O)[O-])CC1	4%	1.9	16	-1	x

The closing 3 records of the section before open the next one:
SMILES	Mtb growth	RecA intein inh	Arbovirus anti	Mtb betalactam	YopH PTP inh	others
C/C=N/NC(=O)CCCC(=O)N/N=C/C	-17%	x	-5	5	x
O=C(NCc1cccnc1)/C(=C/c1ccc(-c2cccc(Cl)c2)o1)S(=O)(=O)c1ccccc1	57%	26	-46	70	-16
CC1CCN(c2ccc(S(=O)(=O)NC3=NCCCCC3)cc2[N+](=O)[O-])CC1	4%	1.9	16	-1	x
COc1cc(CNc2ccc(CNc3ncn[nH]3)cc2)ccc1OCc1ccccc1	9%	0.7	-19	4	-13
O=C(NCC(c1ccco1)N1CCc2ccccc21)c1ccccc1Br (stereo unspecified)	x	4.5	x	-6	x
O=C(CNC(=O)Cc1ccccc1)NCC(=O)OCC(=O)c1ccc(F)cc1	4%	-1.0	6	7	x
COc1ccc(OC)c(C(c2nnnn2CC2CCCO2)N2CCN(C3CCCC3)CC2)c1 (stereo unspecified)	-9%	-2.3	6	-4	-50
COc1ccc(S(=O)(=O)n2ccc(C)n2)cc1C	-10%	-0.2	4	-8	-6
CCCCN(C(=O)CSc1nnc(-c2ccc(OC)cc2)n1C(C)C)c1c(N)n(Cc2ccccc2)c(=O)[nH]c1=O	3%	-2.0	-5	4	-16
CC(=O)N1CCN(CC(=O)Nc2ccc(SC(F)F)cc2)CC1	0%	-2.6	6	-3	-13
CC1(C)c2ccccc2N2CC(=O)N[C@@]21/C=C/C=C/c1ccccc1	-2%	0.4	x	-4	x
COC(=O)COc1ccccc1/C=C1/NC(=O)NC1=O	-7%	-0.5	2	-3	-17
O=C(/C=C/c1ccccc1)OCc1cncs1	1%	-1.9	5	4	x
Cc1cccc(-c2nc(CN3CCN(Cc4cccc(F)c4)CC3)c(C)o2)c1	x	-1.6	x	-4	x
Nc1nc(SCC(=O)Nc2ccccc2Sc2ccc(Cl)cc2)n[nH]1	11%	x	-3	2	3
CC(C)Oc1ccc(CN2CCCC(CO)(Cc3ccccc3)C2)cc1CO (stereo unspecified)	x	1.1	x	-2	x
COC(=O)C1=C2SC(C)C(=O)N2C(N)=C(C#N)C1c1cc(OC)c(OC)c(OC)c1 (stereo unspecified)	-5%	-2.9	4	-9	-3
Cc1ccc(C(=O)OCC(=O)NCc2ccco2)s1	-5%	-0.1	-5	-8	x
COc1ccc(-c2nnc(NC(=O)CSc3ccc(Cl)cc3)s2)cc1OC	-5%	-6.8	-20	7	-12
COc1cccc(N=C2NC(=O)/C(=C/c3cc([N+](=O)[O-])ccc3O)S2)c1	x	-0.7	x	-2	x
O=C(Nc1ccc(F)cc1F)c1ccc2c(c1)OCCO2	x	-3.2	x	-4	x
CCOC(=O)C(NCc1ccccc1)(NC(=O)c1ccccc1)C(F)(F)F (stereo unspecified)	1%	-0.1	-5	-3	12
COC(=O)C(C)Sc1ccc2nnc(CCNS(=O)(=O)c3ccc(C)cc3)n2n1 (stereo unspecified)	1%	5.8	-4	3	x
CC(O)[C@H]1CN=C(N)N1CC(C)(C)C (stereo partly specified)	-9%	-2.6	x	5	x
COC(=O)C1CCN(c2cc(Cl)nc(N)n2)CC1	1%	0.5	7	4	x
CCCC(=O)C1=C(O)C(C(=O)OC)C(C)(C)CC1=NCCc1ccc(OC)c(OC)c1 (stereo unspecified)	-6%	-1.8	-4	3	x
CCCCn1c(N)c(N(CCC(C)C)C(=O)CC2CCCCC2)c(=O)[nH]c1=O	x	6.8	x	-4	x
COc1cccc(CN2CCNC(=O)C2CC(=O)N(C)C2CCOCC2)c1 (stereo unspecified)	x	-0.5	x	6	x

For reference, some entries already given.
SMILES	Mtb growth	RecA intein inh	Arbovirus anti	Mtb betalactam	YopH PTP inh	others
COc1cc(CNc2ccc(CNc3ncn[nH]3)cc2)ccc1OCc1ccccc1	9%	0.7	-19	4	-13
O=C(NCC(c1ccco1)N1CCc2ccccc21)c1ccccc1Br (stereo unspecified)	x	4.5	x	-6	x
O=C(CNC(=O)Cc1ccccc1)NCC(=O)OCC(=O)c1ccc(F)cc1	4%	-1.0	6	7	x
COc1ccc(OC)c(C(c2nnnn2CC2CCCO2)N2CCN(C3CCCC3)CC2)c1 (stereo unspecified)	-9%	-2.3	6	-4	-50

Carrying on.
SMILES	Mtb growth	RecA intein inh	Arbovirus anti	Mtb betalactam	YopH PTP inh	others
O=S(=O)(c1ccc(Cl)s1)N1CCN(C/C=C/c2ccccc2)CC1	5%	17	1	-6	-29
O=S(=O)(c1cccc(-c2nnc(-c3cccnc3)o2)c1)N1CCCCC1	-1%	x	12	-1	-18	Arbovirus anti repeat=-1
COc1cccc2[nH]c(C(=O)NCCc3ccccc3)cc12	x	2.8	x	2	x
Cc1cc(C)c(NC(=O)CNC(=O)COC(=O)CNC(=O)c2ccc(Cl)cc2Cl)c(C)c1	x	1.5	x	-2	x
CCc1ccc(N2CC(C(=O)N3CCN(c4ccccn4)CC3)CC2=O)cc1 (stereo unspecified)	x	8.8	x	-11	x
COc1ccc(NC(=O)CN(C)C(=O)c2cc3c(s2)CCC(C)C3)cc1 (stereo unspecified)	x	5.2	x	-9	x
COC1CCCCC1NS(=O)(=O)c1ccc(Cl)cc1 (stereo unspecified)	1%	0.1	4	0	x	Arbovirus anti repeat=5
COc1ccc(C=O)cc1COc1ccccc1F	7%	1.9	-8	-4	-19
O=C(O)COc1ccc(/C=N/NC(=O)C2CCCN2S(=O)(=O)c2ccc(Cl)cc2)cc1 (stereo unspecified)	-4%	1.2	2	-6	-11
O=Cc1c[nH]c2ccc(S(=O)(=O)N3CCOCC3)cc12	-3%	-0.9	0	-4	-21
CCOc1ccccc1NC(=O)c1ccc(S(=O)(=O)N2CCOCC2)cc1	-2%	2.8	-3	66	-51
Cc1ccc(S(=O)(=O)NC(=O)NCc2ccc(Cl)cc2)cc1	6%	0.2	0	-15	-23
Cc1ccc(C2CC(=O)C(C=NCCN3CCN(C(=S)Nc4ccccc4)CC3)=C(O)C2)cc1 (stereo unspecified)	8%	1.2	4	1	x
C=CCn1c(=O)c2c(nc3n2CCCN3CCc2ccc(OC)c(OC)c2)n(C)c1=O	x	-0.6	x	7	x
COC(=O)c1cc2c(cc1NC(=O)CSCCc1ccccn1)OCO2	1%	2.8	3	-3	-21
Nc1nc2ccc(C(=O)Nc3ccccc3)cc2s1	3%	2.2	-9	-11	-56
CCc1nnc(NC(=O)CSc2nnc(-c3ccoc3C)n2-c2cccc(C)c2)s1	4%	-0.9	7	0	-30
Cc1ccc(C)c(NC(=O)CN(C)C(=O)c2nn(C)c(=O)c3ccccc23)c1	0%	-0.5	3	-3	x
CCOC(=O)C1CCN(c2ncnc3c2cnn3-c2ccccc2)CC1	3%	0.4	5	93	-37
CCCC(c1nnnn1C1CCCC1)N1CCN(C(=O)c2ccco2)CC1 (stereo unspecified)	-12%	8.4	9	-6	-39
COc1cc(CN2CCCC(CCC(=O)NCc3ccc(C)o3)C2)cc2c1OCO2 (stereo unspecified)	3%	-0.4	1	2	x
CN1CCN(c2nc3ccccc3nc2C(C#N)S(=O)(=O)c2ccccc2)CC1 (stereo unspecified)	7%	0.4	x	-3	x
COc1ccc(Cn2c(O)c(C=Nc3ccccc3C(=O)O)c3ccccc3c2=O)cc1	-2%	11	x	-5	x

Arranged by molecular weight (lowest first): 3 of the compounds above.
SMILES	Mtb growth	RecA intein inh	Arbovirus anti	Mtb betalactam	YopH PTP inh	others
Cc1ccc(S(=O)(=O)NC(=O)NCc2ccc(Cl)cc2)cc1	6%	0.2	0	-15	-23
CCCC(c1nnnn1C1CCCC1)N1CCN(C(=O)c2ccco2)CC1 (stereo unspecified)	-12%	8.4	9	-6	-39
COc1cc(CN2CCCC(CCC(=O)NCc3ccc(C)o3)C2)cc2c1OCO2 (stereo unspecified)	3%	-0.4	1	2	x

High-throughput results as filed in PubChem.
